Assay outcomes as filed in PubChem BioAssay.
Rango complex inh: Rango-importin beta binding inhibition | Rango CFP/YFP FRET sensor + importin beta, 45 min | Potency, µM (titrated, usually from 92.2 µM), without a hit: at the top dose inhibition of complex formation | AID 540263 | 340,000 compounds, 0.031% hits | Q14974; active = rising FRET ratio curve, often small or poorly fitted; inconclusive = mostly compound fluorescence or quenching in the first reads; inactive = flat curves in all reads;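 also: potency is read from the fitted curve at half-maximal effect; 0% = DMSO wells and 100% = buffer wells lacking importin beta; nearly all actives have a fitted effect of over 15% in size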
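Inhibition scored from the CFP 486 nm/YFP 530 nm FRET ratio 45 min after adding 0.125 microM importin beta to 50 nM Rango biosensor preincubated 5 min with compound (room temperature, PBS with DTT, Tween-20, BSA). No-importin wells as positive control.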
Rango dissoc inh: prevents RanGTP from dissociating the Rango-importin beta complex; O95149+P62826; Biochemical FRET Rango-importin beta, RanGTP-induced dissociation; Potency, µM (highest dose often 46.1 µM), for the others: top-dose activity change, negative = inhibition; 340,000 compounds, 0.071% hits; AID 540253; active means falling FRET ratio curve, often poorly fitted, with flat reads before Ran was added; inconclusive means other falling curves, or compound fluorescence or quenching; inactive means flat or rising ratio curve;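 also: potency is read from the fitted curve at half-maximal effect; % of control where 0% means no effect; nearly all actives have a fitted effect of over 45% in size; -100% = wells without RanGTP and RCC1; the record marks most hits as doubtful in a second field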
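Quantitative HTS using a FRET biosensor: 0.1 uM Rango, 0.25 uM importin beta, 0.6 uM Ran, 2 mM GTP, 0.2 uM RCC1 final, PBS with DTT, Tween-20 and BSA. Post-read taken 45 min after Ran addition.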
miR-21 FLuc: raises the signal of a miR-21 reporter; HeLa miR-21 FLuc reporter, luciferase, 48 h; Potency, µM (highest dose often 38.3 µM), inactives show at the top dose reporter change, positive = more light; 340,000 tested, under 10 active; active = well fitted rising curve with a large enough effect; inconclusive = small, poorly fitted or top-dose-only effect; inactive = no such curve, though single readings can be large or run the other way;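 also: % of control where 0% means no effect; miR-21 action dims this reporter so a rising signal means less miR-21 action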
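Compounds were titrated across several concentrations (up to approximately 40 uM) and incubated 48 hours with HeLa miR-21-FLuc reporter cells (miR-21 target sequence downstream of FLuc, endogenous miR-21). Readout was firefly luciferase luminescence after lytic detection reagent.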
GLA inh pH 4.5: alpha-galactosidase A (human) inhibition, pH 4.5; P06280; purified enzyme, 4-MU-alpha-Gal fluorescence, pH 4.5; activity change, negative = inhibition, % at 105 µM; 230,000 tested, under 10 active; AID 1467; inconclusive = small, poorly fitted or top-dose-only inhibition, or a rising curve; inactive = flat fitted curve, though single readings scatter; no compound was filed as active;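 also: 0% = full activity with enzyme and -100% = basal without enzyme; dose as in the result columns while the protocol names 77 µM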
Target sequence (P06280 whole entry, looked up): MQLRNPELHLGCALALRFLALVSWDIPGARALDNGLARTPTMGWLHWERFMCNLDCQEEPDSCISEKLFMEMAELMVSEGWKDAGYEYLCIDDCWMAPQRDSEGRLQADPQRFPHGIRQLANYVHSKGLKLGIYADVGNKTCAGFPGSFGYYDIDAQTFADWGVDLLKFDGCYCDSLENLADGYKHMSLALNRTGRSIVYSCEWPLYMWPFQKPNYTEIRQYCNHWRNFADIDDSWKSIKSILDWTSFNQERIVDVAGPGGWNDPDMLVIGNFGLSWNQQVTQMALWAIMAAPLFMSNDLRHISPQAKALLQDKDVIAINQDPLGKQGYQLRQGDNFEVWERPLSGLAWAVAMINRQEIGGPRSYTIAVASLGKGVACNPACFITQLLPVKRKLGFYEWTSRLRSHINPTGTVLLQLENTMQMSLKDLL
The depositor's hits bear a star; ? = inconclusive; · = not tested or not shown.

Rango complex inh	Rango dissoc inh	structure	miR-21 FLuc	GLA inh pH 4.5
-2.5%	1%	CC(C)C(C)(C#N)NC(=O)CSc1nc2scc(-c3ccco3)c2c(=O)n1-c1ccccc1 (stereo not given)	-10%	-4
0.3%	-4%	CCOc1ccccc1N(CC(=O)Nc1ccc(OC)cc1)S(=O)(=O)c1ccccc1	15%	·
1.7%	0%	COc1ccc(C(C)=O)cc1CSc1nnc(Nc2c(C)cccc2C)s1	-4%	-5
-0.5%	-15%	COCC(C)n1c(C)cc(C(=O)COC(=O)CNC(=O)c2ccccc2)c1C (stereo not given)	-6%	1
1.8%	-1%	CCCCOc1ccccc1NC(=O)c1ccco1	-1%	-15
-0.1%	-7%	O=C(Oc1ccc2c(c1)OCO2)c1ccc(F)cc1Cl	-64%	-10
0.6%	1%	CCn1cnc2scc(-c3ccc(C)c(C)c3)c2c1=O	-12%	3
1.1%	-5%	COc1ccc(C(=O)C2CCN(CC(=O)Nc3ccccc3F)CC2)cc1	-4%	·
4.8%	9%	COc1cccc(NC(=S)NNC(=O)Cn2nc([N+](=O)[O-])cc2C)c1	-1%	3
0.5%	-24%	CC(=O)NNC(=O)c1cc2c3ccccc3n(C)c2s1	-2%	-2
-2.0%	9%	O=C(COc1ccccc1)N(Cc1ccccc1)c1nc(-c2ccccc2)cs1	0%	1
6.9%	-27%	O=C(C1=C(O)C(=O)N(c2ncccn2)C1c1ccc(Cl)cc1)c1ccco1 (stereo not given)	3%	-9
0.8%	-6%	C=C(C)CSc1nnc(CCCCCNC(=O)OC(C)(C)C)o1	0%	7
-0.8%	-5%	CCOc1ccc(C(C(=O)NC2CCCC2)N(CCOC)C(=O)CNC(=O)c2ccco2)cc1 (stereo not given)	-2%	·
0.5%	1%	COc1cc(CCC(=O)N2CCN(S(=O)(=O)c3ccc(C)cc3)CC2)cc(OC)c1OC	·	·
0.5%	-6%	CCN(CC)S(=O)(=O)c1ccc2c(c1)nc(SCC(N)=O)n2-c1ccc(OC)cc1	-14%	-4
?	-9%	COc1ccc(NC(=O)CSc2cc(C)ccc2C)cn1	-2%	4
2.6%	19%	CCCCOc1ccc(C(=O)NCC(=O)NC2CCCCC2)cc1	·	·
4.4%	15%	Cc1nc([N+](=O)[O-])cn1CC(=O)Nc1ccc(F)c(Cl)c1	14%	·
-1.1%	-22%	O=C(c1cc2ccccc2o1)N1CCN(c2ccccc2Cl)CC1	-9%	-5
-3.1%	-9%	CCc1ccc(C2=NN(CCC(=O)NC3CCCCCC3)C(=O)CC2)cc1	-6%	·
0.4%	0%	CCC(=O)Nc1ccc(N2CCN(S(C)(=O)=O)CC2)cc1	-3%	4
0.2%	-1%	CCC/C(O)=C1\C(=O)CCCC1=NCCc1c(C)[nH]c2ccc(OC)cc12	6%	5
?	?	CCOC(=O)c1c(NC(=S)Nc2ccccc2)sc2c1CCN(C)C2	-15%	-6
0.7%	-1%	CCCNc1ncnc2sc(C)c(C)c12	-21%	-7
1.6%	0%	O=C(NCCOc1ccccc1)c1ccccc1NC(=O)C1CCCO1 (stereo not given)	-25%	6
1.2%	-6%	Cc1cc(OCC(=O)N(C)Cc2ccccc2)cc(C)c1Cl	-9%	·
1.9%	15%	CCOC(=O)CSc1nnc(NC(=O)c2cccc(S(=O)(=O)N3CCCC3)c2)s1	-5%	5
?	-2%	Cc1ccc(C)c(NC(=S)NCCc2c[nH]c3ccccc23)c1	10%	-8
-2.0%	-11%	Cc1ccc(-c2nc3ccccc3o2)cc1NC(=S)NC(=O)/C=C/c1ccco1	-9%	1

Complete entries as entered above. Screens in order: Rango complex inh, Rango dissoc inh, miR-21 FLuc, GLA inh pH 4.5
CCn1cnc2scc(-c3ccc(C)c(C)c3)c2c1=O is listed as 0.6%, 1%, -12%, 3
O=C(c1cc2ccccc2o1)N1CCN(c2ccccc2Cl)CC1 is listed as -1.1%, -22%, -9%, -5

Going on with the list:
Rango complex inh	Rango dissoc inh	structure	miR-21 FLuc	GLA inh pH 4.5
-5.1%	12%	CS(=O)(=O)N1CCC(C(=O)Nc2cccc(Br)c2)CC1	-5%	·
-2.5%	0%	COc1ccc(N(CC(=O)NCC2CCCO2)C(=O)CCC(=O)Nc2cc(C)on2)cc1OC (stereo not given)	-3%	·
2.3%	0%	CCOc1ccc(CN2C(=O)CC(=O)N(S(=O)(=O)c3ccc(OCC)cc3)C2=O)cc1	-14%	4
-0.1%	0%	O=C(O)c1sccc1SCc1ccc(Cl)c(Cl)c1	-16%	-7
-0.1%	-1%	O=C(COc1ccc2ccccc2c1CN1CCOCC1)N1CCc2ccccc21	15%	2
-0.1%	2%	O=C1C=C(Nc2ccc(Cl)cc2Cl)CC(c2ccco2)C1 (stereo not given)	21%	1
8.6%	20%	CCOC(=O)c1c(C)[nH]c(C(=O)OCC(=O)N2CC(C)OC(C)C2)c1C (stereo not given)	-2%	2
-3.9%	8%	Cc1ccc(OCC(=O)N(C)Cc2ccccc2)c([N+](=O)[O-])n1	-5%	-2
2.2%	-19%	O=C(NNc1ccccn1)c1ccc(Cl)nc1	-2%	5
10%	6%	O=C(CCSc1ccccc1)Nc1ccccc1Br	-46%	-5
-4.0%	1%	COc1ccc(Cl)c(Cn2c(NCCCN(C)C)nc3c2c(=O)n(C)c(=O)n3C)c1	-5%	7
-2.4%	0%	S=c1[nH]ncn1-c1ccccn1	-1%	0
-1.4%	-17%	COc1cc([N+](=O)[O-])cc(/C=N/N(CCC#N)C(C)=O)c1O	-1%	3
-3.5%	0%	O=C(CNC(=O)c1ccccc1)OCc1cccc(Br)c1	0%	-5
0.1%	21%	COc1cc(NC(=O)CN2CCN(c3ccccn3)CC2)cc(OC)c1OC	-1%	·
0.0%	7%	CCOc1ccc(CCNC(=O)Nc2ccccc2C)cc1OCC	-2%	·
0.4%	0%	Cc1ccc2nc(N3CCN(S(=O)(=O)c4ccc(C)c(Cl)c4)CC3)c(C#N)cc2c1	0%	5
0.8%	-2%	Cc1cc(C)nc(N2CCN(C(=O)CCC(=O)Nc3nnc(CC(C)C)s3)CC2)n1	-3%	3
4.6%	-26%	CC(C)(CNC(=O)c1cc(-c2ccc(Cl)s2)nc2ccccc12)N1CCOCC1	·	·
-2.8%	28%	COc1ccc(Nc2ncnc3ccc([N+](=O)[O-])cc23)c(OC)c1	18%	7
0.2%	-12%	COc1ccc(N(C)C(=O)c2cn(CC(C)C)c(=O)c3cc(OC)c(OC)cc23)cc1	-11%	·
-0.1%	-3%	CCOC(=O)CSc1nc2cc(C(=O)NCc3ccco3)ccc2c(=O)n1C1CCCCC1	-10%	3
1.0%	-4%	CS(=O)(=O)c1ccc(Cl)c(NC(=O)c2cccc(-n3cnnn3)c2)c1	·	·
0.0%	-16%	CCN(CC)S(=O)(=O)c1ccc(C(=O)Nc2ccc(OCC(=O)N3CCOCC3)cc2)cc1	-1%	-12
0.8%	-10%	CCN1CCCC1CNC(=O)c1ccc2c(c1)N(Cc1cccc(Cl)c1)C(=O)c1ccccc1S2(=O)=O (stereo not given)	1%	·
·	·	Cc1ccc(C)n1CCN1CCN(CC(=O)Nc2cc(C(F)(F)F)ccc2Cl)CC1	7%	2
-1.9%	0%	O=C(O)c1ccc2c(=O)n3c(nc2c1)/C(=C/c1ccc(F)cc1)CC3	0%	·
1.4%	21%	Cc1cc(NC(=O)CSc2nnc3c(C)cc4ccccc4n23)no1	-8%	6
-0.7%	14%	COC(=O)c1ccc(OCC(O)CN2C(=O)c3ccccc3S2(=O)=O)cc1 (stereo not given)	1%	-27
2.5%	0%	O=C(COC(=O)/C=C/c1cccs1)NC(c1ccccc1)c1ccccc1	-6%	8

A portion from further up:
Rango complex inh	Rango dissoc inh	structure	miR-21 FLuc	GLA inh pH 4.5
1.0%	-4%	CS(=O)(=O)c1ccc(Cl)c(NC(=O)c2cccc(-n3cnnn3)c2)c1	·	·
0.0%	-16%	CCN(CC)S(=O)(=O)c1ccc(C(=O)Nc2ccc(OCC(=O)N3CCOCC3)cc2)cc1	-1%	-12
0.8%	-10%	CCN1CCCC1CNC(=O)c1ccc2c(c1)N(Cc1cccc(Cl)c1)C(=O)c1ccccc1S2(=O)=O (stereo not given)	1%	·
·	·	Cc1ccc(C)n1CCN1CCN(CC(=O)Nc2cc(C(F)(F)F)ccc2Cl)CC1	7%	2
-1.9%	0%	O=C(O)c1ccc2c(=O)n3c(nc2c1)/C(=C/c1ccc(F)cc1)CC3	0%	·

The list goes on.
Rango complex inh	Rango dissoc inh	structure	miR-21 FLuc	GLA inh pH 4.5
-2.5%	9%	COc1ccc(/C=N/NC(=O)c2ccoc2C)cc1COc1ccc(Cl)cc1	10%	0
-4.6%	3%	Cc1cc(C)cc(OCC(=O)NNC(=O)c2cc(C)[nH]n2)c1	-4%	3
-14%	5%	COc1ccc(S(=O)(=O)NC(C)C(=O)NCc2cccnc2)cc1Cl (stereo not given)	3%	·
0.7%	17%	COc1ccc(C(=O)COC(=O)c2cc(C)no2)c(OC)c1	·	·
1.0%	13%	Cc1ccc(C(=O)Nc2ccncc2)cc1S(=O)(=O)N1CCOCC1	13%	·
2.4%	-3%	CCCC(=O)N1CC(=O)Nc2ccc(F)cc2C1c1ccccc1 (stereo not given)	0%	-2
0.4%	-22%	COc1ccnc(Oc2ccccc2)c1C(N)=O	-2%	5
?	?	COc1cc2sc3cc(NCC[C@@H]4CCCN4C)ccc3c(=O)c2cc1OC	·	·
-0.1%	-17%	COc1cc(C2NC(=O)CCC2[N+](=O)[O-])c(OC)cc1Br (stereo not given)	0%	·
?	-1%	CN(C)/C=C/C(=O)c1cnc(-c2cccc(Cl)c2)s1	-65%	-5
-1.8%	-9%	Nn1c(SCc2cccc(F)c2)nnc1-c1cccnc1	-18%	6
?	-1%	Clc1ccc(OCc2nc(-c3ccncc3)no2)c(Br)c1	-76%	2
3.0%	-4%	COc1cc(NC(=O)c2ccno2)cc(C(=O)Nc2cccc(C(F)(F)F)c2)c1	?	-6
-0.3%	5%	O=[N+]([O-])c1cccc(/C=N\N2CCN(Cc3ccccc3Cl)CC2)c1	-25%	1
0.2%	2%	Nn1c(Nc2ccccc2)nc2ccccc2c1=O	-6%	3
-1.5%	3%	CN(C)C(=O)c1ccc(NC(=O)c2cccc(S(=O)(=O)N3CCCCCC3)c2)cc1	·	·
-2.3%	-8%	O=C(NCCNC(=O)c1cc(Cl)ccc1Cl)c1ccco1	-4%	·
-4.5%	-7%	CCC1(CC)NC(=O)N(CC(=O)OC(C)C(=O)Nc2cc([N+](=O)[O-])ccc2OC)C1=O (stereo not given)	6%	·
-3.2%	1%	COC(=O)c1cc(OC)c(OC)cc1NC(=O)c1c(-c2ccccc2Cl)noc1C	13%	2
-1.1%	-11%	COc1cc(OC)c(-c2sc(Nc3ccccc3)n[n+]2-c2ccc(F)cc2)cc1OC	14%	·
5.5%	14%	CCCCCCCCn1cc(C(C)=O)c(=O)[nH]c1=O	-7%	6
·	·	CC1=NOC(=O)/C1=C/c1ccc(-c2ccc(Cl)cc2)o1	?	-1
-2.2%	3%	COCC(=O)NCc1ccc2c(c1)OCO2	-1%	8
0.0%	1%	CC(=O)NC(CC(=O)c1ccc([N+](=O)[O-])cc1)C(Cl)(Cl)Cl (stereo not given)	-3%	4
-1.3%	-6%	CN(CCc1ccccn1)C(=O)CC1C(=O)NCCN1Cc1ccccc1C(F)(F)F (stereo not given)	-2%	-22
-0.5%	-10%	CNc1ccc(NC(C)=O)cc1[N+](=O)[O-]	-6%	1
-1.9%	4%	COc1cc(CN2CC(=O)N(c3ccc(C)c(C)c3)C2=S)cc(OC)c1OC	-9%	-2
-1.9%	1%	Cc1cc(C(=O)NC2CCCCC2)c(C)n1-c1ccc(F)cc1	-43%	8

This is a subset. The share of hits here may be higher or lower than overall.
